DUX4 inh – blocks DUX4-driven transcriptional activation; 293T-iDUX4 ZSCAN4-Gaussia luciferase reporter, 24 h; stronger effect = lower value; activity change, negative = inhibition, % (no concentration beside the values); 37,000 compounds, 0.8% hits; AID 1224904;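 active = -10% or lower and over 25 points stronger than a control reporter; inconclusive = -10% or lower with a smaller gap; inactive = above -10%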;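 also: 0% = median of neutral control wells and -100% = median of positive control wells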
DUX4 inh difference – second read-out of DUX4 inh, no call of its own (marks repeat the call); Gaussia minus Italica difference, %; measured here: selective DUX4 reporter inhibition;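 worked out from the two reporters; negative = selective loss of the DUX4 reporter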
DUX4 inh control – further read-out of DUX4 inh, marked with its call; activity change, negative = inhibition, %; measured here: Italica tet-on control reporter;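 0 = neutral control and -100 = positive control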
The depositor's hits bear a star; ? = inconclusive; . = not tested or not shown; ! = repeats disagree.

Screens in order – DUX4 inh	DUX4 inh difference	DUX4 inh control
C[C@@H]1CN([C@H](C)CO)C(=O)CCCn2cc(nn2)CO[C@@H]1CN(C)C(=O)Nc1ccc2c(c1)OCO2
    -2.0	0.4	-2.4
COCC(=O)Nc1ccc2c(c1)[C@@H]1C[C@H](CC(=O)N(C)C)O[C@H](CO)[C@@H]1O2
    1.8	1.6	0.2
O=C(NCc1ccc(F)cc1)[C@@H]1[C@@H](CO)[C@@H]2Cn3c(cccc3=O)[C@H]1N2C(=O)C1CC1
    -3.9	-1.6	-2.3
CC(=O)N1CC2(C1)[C@@H](c1ccc(-c3cccc(F)c3)cc1)[C@@H](CO)N2CC1CCOCC1
    2.7	-1.6	4.3
CCCC#Cc1ccc([C@@H]2[C@@H](CO)N3CCCCN(Cc4ccncc4)C[C@H]23)cc1
    -5.0	-10.4	5.4
COc1ccc(C#Cc2ccc([C@H]3[C@H]4CN(C(=O)c5ccncc5)CCCCN4[C@H]3CO)cc2)cc1
    ?	.	.
N#C[C@@H]1[C@@H](c2ccc(C#Cc3cccc(F)c3)cc2)[C@@H](CO)N1C(=O)C1CC1
    ?	.	.
CC(C)NC(=O)N1[C@H](CO)[C@H](c2ccccc2)C12CN(C(=O)c1ccccn1)C2
    5.1	2.5	2.6
C[C@@H](O)C#Cc1ccc([C@H]2[C@H]3CN(C(=O)c4cccc(F)c4)CCCCN3[C@H]2CO)cc1
    17.6	3.5	14.1
Cc1ccccc1-c1ccccc1[C@@H]1[C@H](C#N)N(C(=O)c2ccccc2)[C@H]1CO
    -0.8	-8.7	7.9
C[C@@H]1CN([C@H](C)CO)C(=O)c2cc(NC(=O)Nc3cccc4ccccc34)ccc2O[C@@H]1CN(C)Cc1ccc(Cl)c(Cl)c1
    -1.0	-2.7	1.7
CN(C)CC(=O)N1[C@H](C#N)[C@@H](c2ccccc2-c2ccccc2F)[C@H]1CO
    9.3	5.4	3.8
CO[C@@H]1CN(C)C(=O)c2cc(NC(=O)C3CC3)ccc2OC[C@H](C)N(C(=O)c2ccccn2)C[C@H]1C
    4.2	4.2	-0.1
CCC(=O)N1CC[C@H]2[C@H](CO)Nc3ccc(-c4ccccc4)cc3[C@H]21
    13.3	-0.2	13.5
O=C(NCc1ccccc1)[C@@H]1[C@@H](CO)[C@@H]2Cn3c(ccc(/C=C/c4ccccc4)c3=O)[C@H]1N2CC1CC1
    ?	.	.
CO[C@H](C(=O)N(C)C[C@H]1OCc2ccccc2-c2c(n(C)c3ccccc23)C(=O)N([C@H](C)CO)C[C@H]1C)c1ccccc1
    4.4	2.9	1.4
CC(C)C(=O)Nc1ccc2c(c1)C(=O)N(C)[C@H]1CC[C@H](CC(=O)NCc3ccccc3F)O[C@@H]1CO2
    4.9	4.1	0.8
CN1C(=O)c2cc(NC(=O)C3CCOCC3)ccc2OC[C@@H]2O[C@H](CC(=O)NCc3ccccc3F)CC[C@H]21
    -0.8	-3.8	3.0
CCCC#Cc1ccc([C@H]2[C@@H](CO)N(C(C)=O)[C@H]2CNC(=O)C2CCC2)cc1
    -2.5	-2.3	-0.2
C[C@@H]1CN([C@H](C)CO)C(=O)c2cccc(N(C)C)c2O[C@H]1CN(C)CC1CC1
    -1.6	1.0	-2.6
CS(=O)(=O)Nc1ccc2c(c1)[C@@H]1C[C@@H](CC(=O)NCc3ccc(Cl)cc3)O[C@H](CO)[C@@H]1O2
    1.4	-2.3	3.7
C[C@H](NC(=O)N(C)C[C@H]1OCc2ccccc2-c2ccccc2C(=O)N([C@H](C)CO)C[C@@H]1C)c1ccccc1
    6.9	5.8	1.1
C[C@H](CO)N1C[C@H](C)[C@H](CN(C)Cc2ccc(Oc3ccccc3)cc2)OCc2ccccc2-c2ccccc2C1=O
    -3.5	-9.2	5.7
CCCNC(=O)N[C@H]1CC[C@@H](CC(=O)NC2CCC2)O[C@H]1CO
    4.5	1.6	3.0
C[C@H]1CN([C@@H](C)CO)C(=O)CCCn2cc(nn2)CO[C@@H]1CN(C)C(=O)Nc1ccc(C(C)(C)C)cc1
    1.9	2.5	-0.6
C[C@H](NC(=O)C[C@H]1C[C@@H]2c3cc(NC(=O)CN(C)C)ccc3O[C@@H]2[C@@H](CO)O1)c1ccccc1
    3.4	0.7	2.7
C[C@H](CO)N1C[C@H](C)[C@H](CN(C)CC2CC2)Oc2cc(-c3cccc(C#N)c3)ccc2S1(=O)=O
    2.1	-1.7	3.8
COc1ccc2c3c([nH]c2c1)[C@@H](CO)N(C(=O)c1ccc(F)cc1)CC31CN(C(=O)CC2CC2)C1
    4.4	-6.2	10.6
COc1cccc(C(=O)Nc2ccc3c(c2)C(=O)N(C)[C@H]2CC[C@@H](CC(=O)NCC(F)(F)F)O[C@H]2CO3)c1
    -5.4	-5.5	0.1
Cc1ccc(S(=O)(=O)N(C)C[C@H]2OCc3ccccc3-c3ccccc3C(=O)N([C@@H](C)CO)C[C@H]2C)cc1
    -3.5	-9.0	5.5

(listing goes on)
Screens in order – DUX4 inh	DUX4 inh difference	DUX4 inh control
COc1ccc(NC(=O)N[C@@H]2CC[C@@H](CCn3cc(C4(O)CCCC4)nn3)O[C@H]2CO)cc1
    -1.1	-3.5	2.5
CS(=O)(=O)N1[C@@H]2c3ccc(-c4cccc(F)c4)c(=O)n3C[C@H]1[C@H](CO)[C@H]2C(=O)N1CCCCC1
    3.2	3.3	-0.1
CCc1sc(N2[C@H](C#N)[C@H](c3ccccc3-c3ccc(F)cc3)[C@H]2CO)nc1C
    ?	.	.
Cc1noc(C)c1NC(=O)N(C)C[C@@H]1Oc2c(NC(=O)c3cnccn3)cccc2C(=O)N([C@@H](C)CO)C[C@H]1C
    3.9	0.6	3.2
COc1ccc(-c2ccc([C@@H]3[C@H](C#N)N(C(=O)C4CCC4)[C@H]3CO)cc2)cc1
    -1.2	-2.5	1.3
O=C(NCCc1ccccc1)[C@@H]1[C@@H](CO)[C@@H]2Cn3c(ccc(-c4cccc(F)c4)c3=O)[C@H]1N2
    7.4	7.8	-0.4
CC=Cc1ccc2n(c1=O)C[C@@H]1[C@@H](CO)[C@H](C(=O)N3CCCCC3)N(CC3CC3)[C@H]21 (mixture of isomers)
    -3.8	-1.9	-1.9
CO[C@H](CN(C)C(=O)c1ccc2c(c1)OCO2)[C@@H](C)CN([C@H](C)CO)S(=O)(=O)c1ccccc1
    1.7	0.0	1.7
CCN(C[C@@H]1[C@H](c2ccccc2)[C@@H](CO)N1C(=O)COC)S(C)(=O)=O
    -0.6	-2.6	2.0
Cc1ccc(S(=O)(=O)Nc2ccc3c(c2)CC(=O)N([C@H](C)CO)C[C@H](C)[C@H](CN(C)Cc2ccc(Cl)c(Cl)c2)O3)cc1
    -2.4	0.7	-3.1
COCCNC(=O)C[C@@H]1CC[C@@H]2[C@@H](COc3ccc(NS(=O)(=O)c4ccc(Cl)cc4)cc3C(=O)N2C)O1
    0.7	-0.5	1.2
C/C=C/c1ccc([C@H]2[C@@H](CO)N(C(=O)COC)[C@H]2CNC(=O)C2CC2)cc1
    -1.1	-0.3	-0.8
O=C(C[C@H]1C[C@H]2c3cc(NC(=O)NC4CCCC4)ccc3O[C@H]2[C@H](CO)O1)NCc1ccc(-c2ccccc2)cc1
    -1.7	-3.7	2.0
CS(=O)(=O)Nc1ccc2c(c1)[C@@H]1C[C@@H](CC(=O)N3CCc4ccccc4C3)O[C@@H](CO)[C@@H]1O2
    3.5	9.5	-6.0
COc1ccc(S(=O)(=O)N(C)C[C@H]2Oc3ccc(NS(=O)(=O)c4c(C)noc4C)cc3C(=O)N([C@@H](C)CO)C[C@H]2C)cc1
    2.6	-0.4	3.0
CC(C)C#Cc1ccc2c(c1)O[C@H](CN(C)C(=O)Nc1ccccc1)[C@H](C)CN([C@@H](C)CO)S2(=O)=O
    -1.4	-0.6	-0.9
COc1ccc(C[C@@H]2CCn3cc(nn3)COCCNC2=O)cc1
    -3.9	-1.6	-2.3
O=C(C1CCOCC1)N1CC(=O)N2[C@H](C1)[C@H](c1ccc(-c3cccnc3)cc1)[C@@H]2CO
    27.0	8.6	18.5
COc1ccc(NC(=O)N2CC[C@@H]3[C@H]2c2cc(-c4cccc(F)c4)ccc2N(C)[C@H]3CO)cc1
    4.7	19.0	-14.4
Cc1noc(C)c1NC(=O)N(C)C[C@@H]1OCc2cn(nn2)CCCC(=O)N([C@H](C)CO)C[C@H]1C
    6.3	1.9	4.5
COCC(=O)N1CC2(C1)[C@@H](c1ccccc1)[C@H](CO)N2C(=O)c1ccncc1
    9.7	7.1	2.5
O=C(Cc1cccnc1)N1CC(=O)N2[C@H](CO)[C@@H](c3ccc(-c4cccc(F)c4)cc3)[C@@H]2C1
    ?	.	.
CCCC(=O)Nc1ccc2c(c1)C(=O)N(C)[C@H]1CC[C@@H](CC(=O)NCC3CCCCC3)O[C@@H]1CO2
    3.2	1.5	1.7
C[C@@H]1CN([C@H](C)CO)C(=O)c2cc(C3=CCCCC3)cnc2O[C@H]1CN(C)C(=O)CN1CCOCC1
    -3.9	-4.9	1.0
CC(=O)N(C)C[C@@H]1[C@H](c2ccc(-c3ccc(F)cc3)cc2)[C@H](CO)N1C(C)=O
    -5.5	-1.6	-4.0
COc1ccc2c3c(n(C)c2c1)[C@@H](CO)N(S(C)(=O)=O)CC31CCN(CC2CCCCC2)CC1
    -20.7*	-26.6*	5.8*
O=C(c1ccccn1)N1CC[C@@H]2[C@H]1c1cc(-c3cccc(F)c3)ccc1N[C@@H]2CO
    -9.6	-10.5	0.9
COc1ccc(NC(=O)N[C@@H]2CC[C@H](CCNC(=O)c3ccccc3F)O[C@H]2CO)cc1
    -4.0	-2.2	-1.8
COc1ccccc1-c1ccc(C2[C@@H]3CN(S(=O)(=O)c4ccc(C)cc4)C[C@H]2N3)cc1 (stereo not given in full)
    -33.7*!	-30.7*!	-2.9*!
CCNC(=O)C[C@H]1CC[C@@H]2[C@H](COC[C@@H](O)CN2C(=O)C2CCCC2)O1
    6.0	-2.6	8.6

Pulled one by one from the entries so far (three):
Screens in order – DUX4 inh	DUX4 inh difference	DUX4 inh control
COc1ccccc1-c1ccc(C2[C@@H]3CN(S(=O)(=O)c4ccc(C)cc4)C[C@H]2N3)cc1 (stereo not given in full)
    -33.7*!	-30.7*!	-2.9*!
CS(=O)(=O)N1[C@@H]2c3ccc(-c4cccc(F)c4)c(=O)n3C[C@H]1[C@H](CO)[C@H]2C(=O)N1CCCCC1
    3.2	3.3	-0.1
COc1ccc(NC(=O)N2CC[C@@H]3[C@H]2c2cc(-c4cccc(F)c4)ccc2N(C)[C@H]3CO)cc1
    4.7	19.0	-14.4

Later entries:
Screens in order – DUX4 inh	DUX4 inh difference	DUX4 inh control
C[C@H](CO)N1C[C@H](C)[C@@H](CN(C)Cc2cccnc2)Oc2cc(/C=C/c3ccccc3)ccc2S1(=O)=O
    -0.8	-4.2	3.5
CN1CCN(C(=O)c2cc3c(c(-c4cccc(C5=CCCC5)c4)n2)[C@@H](CCO)N([S@](=O)C(C)(C)C)C3)CC1
    1.4	2.6	-1.2
C[C@H]1CN([C@@H](C)CO)C(=O)c2cccc(NC(=O)c3ccc(-c4nccs4)cc3)c2O[C@@H]1CN(C)Cc1ccc(Cl)c(Cl)c1
    -2.9	-3.2	0.3
Fc1ccc(-c2ccc(C3[C@H]4CNC[C@@H]3N4Cc3ccccn3)cc2)cc1 (stereo not given in full)
    12.3	11.8	0.5
O=C(C[C@H]1C=C[C@H](NC(=O)Cc2cccnc2)[C@@H](CO)O1)NCc1ccc2c(c1)OCO2
    0.1	-0.7	0.7
CN(C)C(=O)c1ccc(-c2ccc3c(c2)[C@H]2[C@H](CCN2C(=O)Cc2ccccn2)[C@@H](CO)N3C)cc1
    -9.0	-3.1	-6.0
CC(C)NC(=O)NC[C@H]1[C@@H](c2ccccc2)[C@@H](CO)N1C(=O)c1ccccc1
    -1.3	-2.3	1.0
C[C@H]1CN([C@@H](C)CO)C(=O)c2c(c3ccccc3n2C)-c2ccccc2CO[C@@H]1CN(C)S(=O)(=O)c1cccc(F)c1
    ?	.	.
CCCNC(=O)N1C[C@@H](O)COC[C@H]2O[C@H](CC(=O)N[C@H]3CCN(Cc4ccccc4)C3)CC[C@@H]21
    7.1	7.2	-0.1
CN(C)CC(=O)Nc1ccc2c(c1)[C@H]1C[C@H](CC(=O)NCC3CC3)O[C@@H](CO)[C@H]1O2
    5.9	3.2	2.7
COc1ccccc1-c1ccc(C2[C@@H]3CN(Cc4cccc(F)c4)C[C@H]2N3)cc1 (stereo not given in full)
    -48.4*	-30.7*	-17.7*
CN1C(=O)c2cc(NC(=O)c3cscn3)ccc2OC[C@H]2O[C@@H](CC(=O)N3CCOCC3)CC[C@H]21
    0.8	3.4	-2.6
COc1cccc(NC(=O)Nc2ccc3c(c2)C(=O)N(C)[C@@H]2CC[C@H](CC(=O)NCCc4ccccc4)O[C@H]2CO3)c1
    0.2	2.4	-2.3
COc1ccccc1CN1[C@H](CO)[C@H](c2ccccc2)C12CN(C(=O)c1ccccn1)C2
    -0.8	-0.9	0.1
COCC(=O)NC[C@H]1[C@H](c2ccc(-c3ccccc3)cc2)[C@@H](CO)N1C(C)=O
    2.0	-4.4	6.5
Cc1ccccc1-c1ccc([C@H]2[C@@H](CO)N3CCCCN(CC4CC4)C[C@@H]23)cc1
    -4.2	-7.1	2.9
O=C(c1ccccn1)N1C[C@@H]2[C@H](c3ccccc31)[C@H](CO)N2C(=O)c1ccccn1
    -0.9	0.1	-1.1
N#C[C@H]1[C@H](c2ccc(-c3cccc(F)c3)cc2)[C@@H](CO)N1S(=O)(=O)c1cccc(F)c1
    0.3	-1.6	1.8
CN(C)C(=O)[C@H]1[C@H](CO)[C@H]2Cn3c(ccc(-c4ccncc4)c3=O)[C@H]2N1Cc1ccccc1
    -1.2	-0.8	-0.3

Screening results: PubChem, Broad Institute

A portion of the library (hit frequency here may not be typical).
